Sa RN4220 lethal: growth inhibition of S. aureus RN4220, primary screen, OD600. 16 h. inhibition, % (test concentration not listed). actives 0.33% (n = 330,000);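 active means z-score of -3 or lower and OD600 up to 0.18 on both plates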;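 further: plate controls were untreated cells for no effect and reference antibiotic for full effect; stock transfer was 100 nL into about 80 µL; one replicate is shown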
Bead autofluor: flagged as autofluorescent in microsphere protease counterscreen. fluorescence intensity (test concentration not listed). compound autofluorescence counterscreen, microsphere flow cytometry; stronger effect = higher value. actives 3.1% (n = 360,000);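 active means at least 3 SD above the mean of all compounds, about 16000 in these data; inconclusive means too few beads counted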;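 further: 100 nL of 1 mM stock went into each well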
PrP UTR inh: inhibition of PrP 5' UTR reporter expression; cell-based PrP 5' UTR mRNA reporter, plate reader; inhibition, % (concentration not given with the values); actives 0.35% (n = 340,000); AID 488862, 2010;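 active means every replicate at 50% or more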;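 further: 0 = median of the neutral control wells; tested in H4 reporter cells; numbers are from one replicate; inactives centre near -14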
ugtP null kill: growth inhibition of ugtP-null S. aureus, primary screen, RN4220 ugtP deletion, OD600; growth inhibition, % (no concentration beside the values); actives 0.54% (n = 330,000); AID 1259309, 2017; 16 h; some inactives read as strong as hits;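 active means z-score under -3 and OD600 up to 0.15 on both plates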;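 further: plate controls were untreated wells for no effect and antibiotic for full effect; wells of about 80 µL received 100 nL stock; the first replicate is given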
Mtb hypoxia inh: PubChem AID 1159583. M. tuberculosis hypoxia-regulated fluorescent reporter, fluorescence. actives 0.1% (n = 300,000). fluorescence inhibition, % (no concentration beside the values);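 active means 35 to 45% if threefold the growth effect, above 45% if 1.5-fold the growth effect; inactive means the rest, general growth blockers included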;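 further: wells of about 50 µL received 100 nL stock; 0% = vehicle wells and 100% = reference inhibitor wells; whole bacteria with a GFP reporter of the hypoxia response; strong numbers were not always called active; many hits fall short of the cut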
BJeLR viability: MLPCN primary cell-based screen for lethality selective to Ras in HRASV12 cells; BJeLR (HRASV12) viability, CellTiter-Glo ATP luminescence, 48 h; reference of the scale not given here; inhibition, % (test concentration not listed); actives 0.17% (n = 300,000); AID 1554, 2009;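 active means replicate mean above 50%; inconclusive means above 50% but judged a plate artefact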;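 further: 50 nL library stock added to about 25 µL; numbers are from one replicate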
Mtb hypoxia inh growth: second read-out of Mtb hypoxia inh, no call of its own (marks repeat the call); growth inhibition, %; measured here: M. tuberculosis growth (absorbance);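 0% = vehicle and 100% = reference antibiotic; read after six days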
Numbers without * were called inactive; ? = inconclusive; nt = not tested or not shown. Compounds as they come. About 4.1% of those tested had a hit in this group.

molecule,Sa RN4220 lethal,Bead autofluor,PrP UTR inh,ugtP null kill,Mtb hypoxia inh,Mtb hypoxia inh growth,BJeLR viability
O=C(COc1ccc([N+](=O)[O-])cc1Cl)Nn1cnnc1,0.9,3480,-6,4,4,-8,-5
Cc1cccc(CN2C(=O)/C(=C\c3ccc(C(=O)NCCN4CCOCC4)cc3)Sc3ccccc32)c1,3.5,4651,-3,8,14,3,10
O=C(CCCc1ccccc1)Nc1ccccn1,nt,3591,-31,nt,nt,nt,0
COC(=O)[C@]1(Cc2ccccc2)N[C@H](c2ccc(-c3cccc(Cl)c3)cc2)[C@@H]2C(=O)N(C)C(=O)[C@@H]21,nt,3504,6,nt,nt,nt,7
COC(=O)c1sccc1NC(=O)C1C2C=CC(C2)C1C(=O)O (stereo not given),1.1,4593,-14,3,nt,nt,0
Cc1cc(-c2ccc(C)c(S(=O)(=O)NCc3ccc(OC(C)C)cc3)c2)on1,2.3,5794,-24,15,8,5,3
O=C(C1CCCN(S(=O)(=O)c2ccc([N+](=O)[O-])cc2)C1)N1CCCCC1 (stereo not given),5.4,4952,-18,-3,10,7,4
CC1CCCCC1NC(=O)C(Cc1ccccc1)NS(=O)(=O)c1cccs1 (stereo not given),2.2,7041,-11,-15,6,2,16
COc1ccc(NC(=O)c2cc(Cl)ccc2NC(=O)c2ccco2)c(OC)c1,-5.6,4850,-1,-17,nt,nt,-1
COc1cc(OC)c(CN2CCN(c3ccc(F)cc3)CC2)cc1Br,-0.6,5986,-8,-2,-3,-5,-10
CCN1/C(=C\c2ccc3cc(C)ccc3[n+]2CC)Sc2cc(C)c(C)cc21,100*,7412,24,100*,nt,nt,38
CS(=O)(=O)Nc1ccccc1C(=O)OCC(=O)NC1CC1,-2.2,6104,-11,-1,-1,3,nt
CC1CCCN(CC(O)COc2ccc(S(=O)(=O)N3CCCC3)cc2[N+](=O)[O-])C1 (stereo not given),4.7,3244,-28,8,12,3,nt
NC(=O)CSc1nc2ccccc2n1Cc1ccccc1F,1.3,8795,-49,4,3,8,-6
Cc1cccc(C)c1OC(=O)CN1C(=O)c2ccccc2C1=O,3.2,3458,-2,1,6,7,-9
COc1ccc(CNC(=O)COc2ccc(C(=O)c3ccc(F)cc3)cc2)cc1,-0.6,1986,-15,7,8,1,-15
CSc1cccc(NC(=O)CNS(=O)(=O)c2ccccc2)c1,0.9,5537,-21,3,7,9,-3
N=c1n(CCN2CCOCC2)c2ccccc2n1CC(O)COc1ccccc1 (stereo not given),0.5,2055,-2,-4,nt,nt,3
O=C(Cn1nnc(-c2ccccc2F)n1)OCC(=O)c1ccccc1,10,5638,-18,10,0,7,0
COc1ccc(S(=O)(=O)N2C(=O)/C(=C3\SC(N)=NC3=O)c3ccccc32)cc1,1.8,4800,-13,-2,11,0,-3
CCNC(=S)NN=Cc1cn(Cc2ccc(F)cc2)c2ccccc12,-1.8,nt,nt,-18,7,4,nt
N=c1n(N)c2ccccc2n1CC(=O)c1ccc(Br)cc1,-0.2,3491,-66,8,4,0,-3
CCCNC(=O)c1ccc2c(=O)c(O)c(-c3ccc(OC)cc3)[nH]c2c1,-0.6,3248,-25,-16,5,-6,-5
Cc1ccc(/C=N/NC(=O)CSc2nc3ccccc3n2Cc2ccc(Cl)cc2)o1,nt,2648,-19,nt,nt,nt,-3
O=C(COc1cc(F)ccc1[N+](=O)[O-])Nc1cc(S(=O)(=O)N2CCCC2)ccc1Cl,1.9,5023,-12,-7,-14,-4,nt
Cc1cc(C(=O)NCC(=O)OCC(=O)NCC2CCCO2)ccc1[N+](=O)[O-] (stereo not given),0.4,nt,0,6,-4,-2,nt
CSc1ccccc1NC(=O)c1cc(-c2cccnc2)nc2ccc(Br)cc12,-7.9,4075,-11,2,8,8,1
CC1CCN(C(=O)CCc2nnc3ccc(NCc4ccco4)nn23)CC1,1.9,5835,-2,0,9,8,-2
Cc1ccc(C)c(OCC(=O)N(Cc2nnc(-c3ccccc3Cl)o2)C2CC2)c1,4.2,nt,-17,-3,14,9,-3
Cc1c(C(C)(C)O)[nH]c2ccc(C#N)cc12,5.3,3215,-2,-8,2,-3,-8

More records.
molecule,Sa RN4220 lethal,Bead autofluor,PrP UTR inh,ugtP null kill,Mtb hypoxia inh,Mtb hypoxia inh growth,BJeLR viability
Cc1cc2cc(CNC(=O)Nc3ccccc3)ccc2[nH]1,-2.8,3218,-51,-6,-14,3,-3
CC(=O)Nc1ccc(N2C(=O)CCC2=O)cc1C,3.2,4153,-21,6,nt,nt,0
COc1cc(OC)c(OC)cc1C=NN(C)c1ccccc1,-0.8,nt,nt,3,8,10,nt
O=C(COC(=O)C1CCN(c2ccc(C(F)(F)F)cn2)CC1)Nc1ncc(Cl)cc1Cl,3.4,2856,-13,2,-2,-2,nt
O=C(CN(C(=O)CNC(=O)c1cccs1)c1cccc(F)c1)NC1CCCCC1,6.2,5003,-5,9,10,3,-1
Cc1cc2ccccc2n1CCNC(=O)C1CCCC1,0.2,909,-28,-2,nt,nt,-3
CCOC(=O)C1=C(C)OC(N)=C(C#N)C1c1ccc(C)o1 (stereo not given),1.2,9755,9,1,-8,0,-7
Cc1c(Cl)cccc1NC(=O)CC1Oc2ccccc2NC1=O (stereo not given),2.4,4357,-25,11,7,2,-11
Cc1ccc(C(=O)Nc2ccc(C(=O)NCC3CCCO3)cc2)cc1 (stereo not given),4.3,3062,2,13,2,-2,5
O=C(O)CNC(=O)/C(=C\c1ccco1)NC(=O)c1ccco1,4.7,3369,-21,6,8,9,3
COc1ccc(CN(C(=O)Cc2c[nH]c3ccccc23)C(C(=O)NC2CCCCC2)c2ccc(C)o2)cc1 (stereo not given),-4.0,27158*,-22,-13,14,5,2
C/C(=N\NC(=O)c1nnn(-c2nonc2N)c1CN(C)c1ccccc1)c1cccnc1,nt,5622,-1,nt,nt,nt,-2
CCOc1ccccc1N1CN(CC)CNC1=S,5.0,2517,-11,1,5,5,-7
CCCC/C(O)=C1\C(=O)CC(C)(C)CC1=NCCCCCC(=O)O,8.2,3101,-6,6,15,7,8
O=C(c1cccc(F)c1)N1CCC(N2CCCCCC2)CC1,3.5,3042,-22,0,nt,nt,-8
COc1ccc(OCC(=O)Nc2ccc(NC(=O)c3ccco3)cc2)cc1,3.1,4114,-30,1,nt,nt,-1
C=CC(C)n1c(Br)nc2c1c(=O)[nH]c(=O)n2C (stereo not given),2.3,10877,5,3,-4,0,-5
CCN1C(=O)/C(=C\N2CCCc3ccccc32)SC1=S,nt,2972,-30,nt,nt,nt,-7
CC(=O)N1CCN(c2ccc(NC(=O)c3ccc(Cl)cc3)cc2)CC1,nt,3627,-16,nt,nt,nt,-1
CCOc1cccc(-c2c(C(=O)N/N=C(\C)c3cccnc3)nnn2-c2nonc2N)c1,nt,4333,-17,nt,nt,nt,-3
O=C(Nc1ccc2c(c1)OCO2)C1CCCN(S(=O)(=O)Cc2ccccc2)C1 (stereo not given),7.6,3425,-8,3,-3,-2,-12
CC(=O)Nc1ccc(S(=O)(=O)NCc2ccc(C)n2C)cc1,3.4,3260,-16,8,10,7,-6
COc1ccc(NC(=O)CN(c2ccc(F)cc2)S(=O)(=O)c2ccccc2)c(OC)c1,8.3,4170,-20,-1,17,0,2
Fc1ccccc1NC(=S)NCCc1cccc(Cl)c1,6.9,5266,-45,-9,13,10,nt
Cc1ccccc1C#N,4.1,4164,-3,7,-3,12,nt
NC(=O)c1c(N)sc(=S)n1-c1ccccc1,-1.0,4562,-3,5,-2,1,4
COc1ccc(C(=O)NNC(=O)Cc2nc3ccccc3n2C)cc1,3.7,3683,-26,-8,4,4,nt
Cc1ccc(C(=O)Oc2cc(-c3ccccc3)no2)cc1,1.0,2560,-20,-2,nt,nt,7
Cc1ccc(/C=N\NC(=O)COc2ccc(C)cc2[N+](=O)[O-])cc1,nt,4392,-29,nt,nt,nt,-8
COc1ccc(CCN(CC(=O)NC2CCCC2)C(=O)CCC(=O)Nc2cc(C)on2)cc1OC,2.8,4000,-2,5,11,15,-6

Next part:
molecule,Sa RN4220 lethal,Bead autofluor,PrP UTR inh,ugtP null kill,Mtb hypoxia inh,Mtb hypoxia inh growth,BJeLR viability
NS(=O)(=O)c1cccc(NC(=O)Cc2ccc(Cl)c(Cl)c2)c1,0.7,4131,-10,0,4,5,-3
O=C(COc1ccc2ccccc2c1)N1CCCC1,5.3,3117,-34,1,nt,nt,-2
CCOC(=O)/C(=C/c1c(C)n(C)c2ccc([N+](=O)[O-])cc12)C(C)=O,3.7,2036,-19,7,2,8,-2
O=C(C=NNC(=O)c1ccc(Cl)cc1Cl)c1ccccc1,0.0,nt,nt,3,6,-1,nt
COc1ccc(-c2nnc3sc(CN4C(=O)c5ccccc5C4=O)nn23)cc1,0.6,2822,0,-1,nt,nt,9
Cc1ccc(CCNC(=O)C2CCCN(c3nc4ccccc4o3)C2)cc1 (stereo not given),-0.4,11142,-21,2,7,8,-2
Cc1cccc(C=NOCCc2ccccc2)n1,5.0,4264,-86,7,10,7,nt
O=C1c2cccc3cccc(c23)C(=O)N1c1ccncc1,-5.1,3710,-11,7,nt,nt,nt
COc1ccc(NC(=O)CCNS(=O)(=O)c2cccc3nsnc23)c(OC)c1,3.4,5798,-17,6,-8,-3,-17
Cc1cccn2c(=O)c(C=O)c(Nc3ccccc3)nc12,1.6,5748,-15,8,17,2,-3
C#CCOCCOCCOCCNc1nc(N2CCN(C(=O)C(CCCCN)n3cc(CCC(=O)O)nn3)CC2)nc(N2CCN(C(=O)C(C(C)CC)n3cc(CCCCN)nn3)CC2)n1 (stereo not given),4.6,nt,nt,-2,7,13,nt
O=C(NCc1cccnc1)Nc1ccccc1,-1.0,2270,-20,4,1,0,-1
Cc1ccc(C(=O)Nc2ncccc2O)o1,2.8,?,-16,6,-4,-5,23
Cc1ccc(C(=O)N2c3ccccc3OCC2C)cc1 (stereo not given),2.5,4104,-17,5,14,7,-6
COc1cc(CNn2cn[nH]c2=S)ccc1OCC(=O)NC(C)(C)C,nt,4115,10,nt,nt,nt,-1
CCc1ccc(NC(=O)CCC(=O)N2CCSc3ccccc32)cc1,1.7,5988,-4,-5,nt,nt,-1
CC(C)CN1CCC(=O)N(C(CO)Cc2ccccc2)CC1 (stereo not given),5.8,nt,nt,-1,8,1,nt
Cc1ccc(Cl)cc1N1CCN(CC(=O)NC2CCCc3ccccc32)CC1 (stereo not given),-14,2498,-8,-12,-13,6,0
CC1=C(C)C(=O)N(C(C)CCc2ccccc2)C1=O (stereo not given),5.1,3699,-21,3,10,0,4

Compound activity deposited in PubChem BioAssay by several laboratories.
